High-throughput results (PubChem BioAssay)
miR-21 FLuc = raises the signal of a miR-21 reporter. HeLa miR-21 FLuc reporter, luciferase, 48 h. Potency, µM (highest dose often 38.3 µM), inactives show at the top dose reporter change, positive = more light. 340,000 tested, under 10 active. AID 2288; active = well fitted rising curve with a large enough effect; inconclusive = small, poorly fitted or top-dose-only effect; inactive = no such curve, though single readings can be large or run the other way;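 also: % of control where 0% means no effect; miR-21 action dims this reporter so a rising signal means less miR-21 action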
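Compounds were titrated across several concentrations (up to approximately 40 uM) and incubated 48 hours with HeLa miR-21-FLuc reporter cells (miR-21 target sequence downstream of FLuc, endogenous miR-21). Readout was firefly luciferase luminescence after lytic detection reagent.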
Rango release inh = inhibitors of RanGTP-induced Rango-importin beta complex dissociation. O95149+P62826. Biochemical FRET Rango-importin beta, RanGTP-induced dissociation. Potency, µM (top dose mostly 46.1 µM), for the others: at the top dose activity change, negative = inhibition. actives 0.071% (n = 340,000). AID 540253; active means falling FRET ratio curve, often poorly fitted, with flat reads before Ran was added; inconclusive means other falling curves, or compound fluorescence or quenching; inactive means flat or rising ratio curve;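 also: potency is read from the fitted curve at half-maximal effect; % of control where 0% means no effect; nearly all actives have a fitted effect of over 45% in size; -100% = wells without RanGTP and RCC1; the record marks most hits as doubtful in a second field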
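Rango FRET biosensor (snurportin-1 IBB flanked by N-terminal EYFP and C-terminal CFP10) at 0.1 uM, with 0.25 uM importin beta in PBS, 1mM DTT, 0.02% Tween-20, 0.1% BSA. 0.6 uM Ran, 2mM GTP and 0.2 uM RCC1 were then added for 45 min at room temperature. Inhibition read as loss of FRET rise.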
Rango-impB inh = prevents formation of the Rango-importin beta complex. Potency, µM (series often up to 92.2 µM), for the others: at the top dose inhibition of complex formation. Q14974. actives 0.031% (n = 340,000). Rango CFP/YFP FRET sensor + importin beta, 45 min; active = rising FRET ratio curve, often small or poorly fitted; inconclusive = mostly compound fluorescence or quenching in the first reads; inactive = flat curves in all reads;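 also: potency is read from the fitted curve at half-maximal effect; 0% = DMSO wells and 100% = buffer wells lacking importin beta; nearly all actives have a fitted effect of over 15% in size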
Target sequence (Q14974 whole entry, looked up): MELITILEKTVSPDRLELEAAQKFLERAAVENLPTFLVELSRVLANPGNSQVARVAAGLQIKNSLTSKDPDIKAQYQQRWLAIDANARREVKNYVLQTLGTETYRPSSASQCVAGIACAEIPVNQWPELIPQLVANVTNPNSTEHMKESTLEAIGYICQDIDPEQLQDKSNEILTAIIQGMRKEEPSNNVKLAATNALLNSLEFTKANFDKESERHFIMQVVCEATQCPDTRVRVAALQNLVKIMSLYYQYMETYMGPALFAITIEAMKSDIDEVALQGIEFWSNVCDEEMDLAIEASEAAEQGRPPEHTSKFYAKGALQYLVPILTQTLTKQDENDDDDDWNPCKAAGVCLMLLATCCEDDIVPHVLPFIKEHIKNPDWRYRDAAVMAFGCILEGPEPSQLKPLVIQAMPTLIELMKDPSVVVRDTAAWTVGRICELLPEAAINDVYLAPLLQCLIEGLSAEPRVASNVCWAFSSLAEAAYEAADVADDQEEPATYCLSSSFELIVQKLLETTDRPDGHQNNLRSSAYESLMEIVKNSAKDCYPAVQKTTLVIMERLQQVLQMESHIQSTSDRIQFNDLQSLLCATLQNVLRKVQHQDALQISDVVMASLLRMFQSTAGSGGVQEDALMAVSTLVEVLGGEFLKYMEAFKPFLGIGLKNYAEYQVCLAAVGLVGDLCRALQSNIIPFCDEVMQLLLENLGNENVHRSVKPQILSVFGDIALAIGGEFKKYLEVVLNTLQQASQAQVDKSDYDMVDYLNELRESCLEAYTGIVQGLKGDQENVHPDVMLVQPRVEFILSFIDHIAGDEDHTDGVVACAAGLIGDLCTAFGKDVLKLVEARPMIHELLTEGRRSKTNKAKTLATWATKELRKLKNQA
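FRET biosensor Rango (snurportin 1 IBB between N-terminal EYFP and C-terminal Cerulean), 50 nM in PBS/1 mM DTT/0.02% Tween-20/0.1% BSA, preincubated 5 min RT with compound; 0.125 microM importin beta added, 45 min RT, CFP/YFP FRET ratio read.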
GLA inh pH 4.5 = blocks human alpha-galactosidase A at pH 4.5 | 230,000 tested, under 10 active | purified enzyme, 4-MU-alpha-Gal fluorescence, pH 4.5 | activity change, negative = inhibition, % at 105 µM; inconclusive = small, poorly fitted or top-dose-only inhibition, or a rising curve; inactive = flat fitted curve, though single readings scatter; no compound was filed as active;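 also: 0% = full activity with enzyme and -100% = basal without enzyme; dose as in the result columns while the protocol names 77 µM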
* marks the source's active call; other numbers are inactive results. These rows are one share of the data; count on the stated rates, not on these rows.

For CCn1c(=O)n(CC)c2cc(S(=O)(=O)N3CCC(c4ccccc4)CC3)ccc21 the results were miR-21 FLuc 1%, Rango release inh 0%, Rango-impB inh -5.8% and GLA inh pH 4.5 -6.
Screening CC(O)C1CCC2C3CCC4CC(O)CCC4(C)C3C(=O)CC12C (configuration not stated) returned Rango release inh -1% and Rango-impB inh -1.1%.
COCCNC(=O)/C(C#N)=C\c1ccc(CNC(=O)C(=O)Nc2ccc(C)c(C)c2)o1 was read as miR-21 FLuc -3%, Rango release inh -4%, Rango-impB inh 6.8% and GLA inh pH 4.5 6.
For COc1ccc(/C=C2\SC(=S)N(NS(=O)(=O)c3ccccc3)C2=O)c(OC)c1 the results were miR-21 FLuc 0%, Rango release inh -13% and Rango-impB inh -0.7%.
Screening CC(Sc1nnc(Cc2cccs2)n1C)C(=O)Nc1ccc(C(N)=O)cc1 (configuration not stated) returned Rango release inh 2% and Rango-impB inh 2.8%.
CC1(C)OC(=O)C(=Cc2ccc(-c3ccc(S(N)(=O)=O)cc3)o2)C(=O)O1 was read as miR-21 FLuc 17%, Rango release inh -12%, Rango-impB inh -0.6% and GLA inh pH 4.5 1.
COc1ccc(C(C)(C)C)cc1NC(=O)COC(=O)c1cnc(C)cn1 was read as miR-21 FLuc -1%, Rango release inh -1%, Rango-impB inh -1.9% and GLA inh pH 4.5 4.
For CN(c1ccccn1)c1ncnc2[nH]ncc12 the results were miR-21 FLuc -12%, Rango release inh -14%, Rango-impB inh -0.9% and GLA inh pH 4.5 0.
For CN(c1ccccc1C(=O)Nc1ccc(S(=O)(=O)N2CCOCC2)cc1)S(C)(=O)=O the results were miR-21 FLuc 2%, Rango release inh 9%, Rango-impB inh 0.5% and GLA inh pH 4.5 5.
For CC(C)c1ccc(NC(=O)COc2nncc3ccccc23)cc1 the results were miR-21 FLuc -24%, Rango release inh 0%, Rango-impB inh 9.2% and GLA inh pH 4.5 -3.
For Cc1ccc(S(=O)(=O)N(C)C)cc1NC(=O)[C@H](Cc1ccccc1)N1C(=O)c2ccccc2C1=O the results were miR-21 FLuc -5%, Rango release inh 26%, Rango-impB inh 0.3% and GLA inh pH 4.5 -11.
`O=C(CC1S/C(=N/N=C/c2c[nH]c3ccccc23)NC1=O)Nc1ccccc1` (configuration not stated) gave miR-21 FLuc -12%, Rango release inh 3%, Rango-impB inh 5.4% and GLA inh pH 4.5 -2.
Screening COc1ccccc1N(C)C(=O)c1cc(S(=O)(=O)N2CCCC2)cn1C returned miR-21 FLuc 0%, Rango release inh -4% and Rango-impB inh -0.2%.
Screening COc1cccc(CN2CCCC(N3CCc4ccccc4C3)C2)c1O (configuration not stated) returned miR-21 FLuc 3%, Rango release inh -25% and Rango-impB inh 3.5%.
`CN(C)/N=C/c1ccc([N+](=O)[O-])cc1[N+](=O)[O-]` gave miR-21 FLuc 3%, Rango release inh 3%, Rango-impB inh 0.0% and GLA inh pH 4.5 -3.
For CC(Sc1nnc2n1CCCCC2)C(=O)Nc1cccc(S(=O)(=O)N2CCOCC2)c1 (configuration not stated) the results were Rango release inh 17% and Rango-impB inh 2.0%.
For Cc1cccc(NC(=S)N2CCN(C(=O)c3ccco3)CC2)c1C the results were miR-21 FLuc 6%, Rango release inh 8% and Rango-impB inh -0.2%.
For CCc1nnc(NC(=O)c2nc(S(=O)(=O)Cc3ccccc3)ncc2Cl)s1 the results were miR-21 FLuc inconclusive, Rango release inh 10% and Rango-impB inh -0.2%.
`COC(=O)c1cccc(N(CC(=O)NCC2CCCO2)C(=O)CCC(=O)Nc2cc(C)on2)c1` (configuration not stated) gave miR-21 FLuc 0%, Rango release inh 4% and Rango-impB inh 1.2%.
COC(=O)C1=C(C)N(CCCC(=O)O)C(=O)NC1c1ccccc1OS(=O)(=O)c1ccc([N+](=O)[O-])cc1 (configuration not stated) was read as Rango release inh 13% and Rango-impB inh 5.5%.
`O=C(NCC1CCCN1S(=O)(=O)c1cccs1)c1ccccc1` (configuration not stated) gave Rango release inh -1% and Rango-impB inh 0.4%.
Clc1cccc(Cc2ccc(Cl)nn2)c1 was read as miR-21 FLuc -4%, Rango release inh 1%, Rango-impB inh 0.4% and GLA inh pH 4.5 1.
O=c1oc2ccccc2c(Nc2ccccc2)c1[N+](=O)[O-] was read as miR-21 FLuc -13%, Rango release inh -6%, Rango-impB inh 3.6% and GLA inh pH 4.5 -4.
Screening COc1ccccc1C(=O)NC(C)c1ccc(-n2ccnc2)cc1 (configuration not stated) returned miR-21 FLuc -16%, Rango release inh 2% and Rango-impB inh 3.4%.
`COCCNC(=O)Cc1c(C)c2cc3c(cc2oc1=O)OC(C)(C)CC3` gave miR-21 FLuc -32%, Rango release inh 14% and Rango-impB inh inconclusive.
Screening CC(=O)NC(Cc1c[nH]c2ccccc12)C(=O)NCc1ccco1 (configuration not stated) returned miR-21 FLuc -2%, Rango release inh 8% and Rango-impB inh -2.9%.
CSc1nc2ccc(NS(=O)(=O)c3ccc([N+](=O)[O-])cc3)cc2s1 was read as miR-21 FLuc 4%, Rango release inh 6%, Rango-impB inh -2.0% and GLA inh pH 4.5 -9.
COc1cc(/C(C)=N/NC(=O)Cc2c(C)[nH][nH]c2=O)ccc1O was read as miR-21 FLuc -3%, Rango release inh -6%, Rango-impB inh 3.0% and GLA inh pH 4.5 -3.
For COc1ccccc1C1=NN(C(=O)c2ccccc2)C(c2ccc(Br)cc2)C1 (configuration not stated) the results were miR-21 FLuc -8%, Rango release inh -5% and Rango-impB inh -2.8%.
For Nc1cccc2c(O)cccc12 the results were Rango release inh -17% and Rango-impB inh -1.7%.
`CN1CCN(Cc2nc(N)nc(Nc3ccc4c(c3)OCCO4)n2)CC1` gave miR-21 FLuc -41%, Rango release inh -6%, Rango-impB inh 0.6% and GLA inh pH 4.5 15.
`Cc1ccc(Cn2c(C)c3cnn(CC(=O)NC4CCCC4)c(=O)c3c2C)cc1` gave miR-21 FLuc -16%, Rango release inh 1% and Rango-impB inh -0.2%.
`COc1ccc(C(=O)NCc2cn3ccccc3n2)cc1` gave miR-21 FLuc -3%, Rango release inh 10%, Rango-impB inh 0.1% and GLA inh pH 4.5 1.
Screening COc1cc(C2C(C#N)=C(N)N(c3cccnc3)C3=C2C(=O)CC(C)(C)C3)ccc1O (configuration not stated) returned miR-21 FLuc -1%, Rango release inh -17%, Rango-impB inh inconclusive and GLA inh pH 4.5 -9.
Screening COc1cc(CN2CCC(C(=O)N3CCCC(C)C3)CC2)cc(Br)c1O (configuration not stated) returned miR-21 FLuc -3%, Rango release inh 2%, Rango-impB inh -1.4% and GLA inh pH 4.5 0.
Screening CCOC(CNC(=O)CN1C(=O)COc2ccc(S(=O)(=O)N3CCCC3)cc21)OCC returned miR-21 FLuc -3%, Rango release inh -7% and Rango-impB inh -1.0%.
CCc1nn(CC(=O)N2CCN(Cc3ccc4c(c3)OCO4)CC2)c(=O)c2cc3occc3n12 was read as miR-21 FLuc 9%, Rango release inh -1%, Rango-impB inh -4.9% and GLA inh pH 4.5 5.
Screening CCOc1ccccc1NC(=O)CSc1nc(=O)n(CCCN2CCOCC2)c2c1CCC2 returned Rango release inh 3% and Rango-impB inh -0.5%.
Screening Cn1c(=O)c2c(nc(CN3CCc4ccccc4C3)n2CCCO)n(C)c1=O returned miR-21 FLuc -1%, Rango release inh 0%, Rango-impB inh -1.3% and GLA inh pH 4.5 2.
Cc1cc2oc(=O)cc(CN3CCN(S(=O)(=O)c4cccs4)CC3)c2cc1C(C)C was read as miR-21 FLuc -2%, Rango release inh -16%, Rango-impB inh 1.5% and GLA inh pH 4.5 5.
`CCOC(=O)c1[nH]c(C)c(C(=O)N(CC)CC)c1C` gave miR-21 FLuc -1%, Rango release inh -10%, Rango-impB inh 2.2% and GLA inh pH 4.5 2.
Cc1[nH]n(-c2ccccc2)c(=O)c1/C=N/c1ccccn1 was read as miR-21 FLuc -2%, Rango release inh 9%, Rango-impB inh 0.2% and GLA inh pH 4.5 -14.
For O=C(CCNC(=O)c1ccccc1Cl)Nc1ccc(Br)c(C(F)(F)F)c1 the results were miR-21 FLuc -12%, Rango release inh -14%, Rango-impB inh -5.2% and GLA inh pH 4.5 7.
CC(C)OC(=O)c1cccc2c1C(=O)c1ccccc1-2 was read as miR-21 FLuc -42%, Rango release inh 15%, Rango-impB inh 8.6% and GLA inh pH 4.5 -3.
Screening CCOC(=O)CNC(=O)/C=C/c1c(Cl)cccc1Cl returned miR-21 FLuc -18%, Rango release inh -7%, Rango-impB inh -1.8% and GLA inh pH 4.5 -4.

Of the compounds above, four have a Cl atom.
For CCc1nnc(NC(=O)c2nc(S(=O)(=O)Cc3ccccc3)ncc2Cl)s1 the results were miR-21 FLuc inconclusive, Rango release inh 10% and Rango-impB inh -0.2%.
Clc1cccc(Cc2ccc(Cl)nn2)c1 was read as miR-21 FLuc -4%, Rango release inh 1%, Rango-impB inh 0.4% and GLA inh pH 4.5 1.
For O=C(CCNC(=O)c1ccccc1Cl)Nc1ccc(Br)c(C(F)(F)F)c1 the results were miR-21 FLuc -12%, Rango release inh -14%, Rango-impB inh -5.2% and GLA inh pH 4.5 7.
Screening CCOC(=O)CNC(=O)/C=C/c1c(Cl)cccc1Cl returned miR-21 FLuc -18%, Rango release inh -7%, Rango-impB inh -1.8% and GLA inh pH 4.5 -4.

Carrying on.
COc1ccccc1C(=O)NCCn1cc(SCC(=O)Nc2cc(C)on2)c2ccccc21 was read as miR-21 FLuc 19%, Rango release inh 6%, Rango-impB inh -0.2% and GLA inh pH 4.5 5.
For CCc1nnc(SCc2ccc(CSc3nnc(CC)n3N)cc2)n1N the results were miR-21 FLuc 2%, Rango release inh 0%, Rango-impB inh -3.6% and GLA inh pH 4.5 -2.
For Brc1ccc(COc2cccc3cccnc23)cc1 the results were Rango release inh -11% and Rango-impB inh 0.9%.
For CSc1nc(SCC(=O)NC(c2ccccc2)c2ccccc2)c2c3c(sc2n1)CN(C)CC3 the results were miR-21 FLuc -8%, Rango release inh -17%, Rango-impB inh -3.7% and GLA inh pH 4.5 7.
`COc1cc(-c2noc(C)c2C(=O)NCc2ccc3c(c2)OCO3)cc(OC)c1OC` gave Rango release inh -3% and Rango-impB inh -2.3%.
`Cc1ccccc1C(=O)N1CCN(c2ccc(NC(=O)c3ccccc3[N+](=O)[O-])cc2)CC1` gave miR-21 FLuc 6%, Rango release inh 3%, Rango-impB inh -0.1% and GLA inh pH 4.5 7.
For O=C(O)c1cccc(NC(=O)c2ccc(CN3C(=O)c4ccccc4C3=O)cc2)c1 the results were miR-21 FLuc 2%, Rango release inh 2% and Rango-impB inh 0.2%.
For CC(C)(C)C(=O)Cn1c(=N)n(Cc2ccccc2)c2ccccc21 the results were miR-21 FLuc -2%, Rango release inh 1%, Rango-impB inh -2.0% and GLA inh pH 4.5 -1.
`CSc1nc(C)c(CCOC(=O)c2cccc(C)c2)c(=O)[nH]1` gave miR-21 FLuc -1%, Rango release inh 11%, Rango-impB inh 4.5% and GLA inh pH 4.5 13.
Screening Cc1cc(C)c2oc(C(=O)N3CCN(C)CC3)cc(=O)c2c1 returned miR-21 FLuc -2%, Rango release inh 28% and Rango-impB inh 2.1%.
`CC[n+]1cc(-c2ccccc2)nc(N2CCOCC2)n1` gave miR-21 FLuc -29%, Rango release inh -1%, Rango-impB inh -1.3% and GLA inh pH 4.5 4.
`COc1ccccc1NC(=O)CSc1nnc(CNC(=O)c2cccs2)o1` gave miR-21 FLuc 4%, Rango release inh -9% and Rango-impB inh -7.4%.
For CCOC(=O)C1=C(Cn2ccc(C(F)(F)F)n2)NC(=O)NC1c1ccc2c(c1)OCO2 (configuration not stated) the results were miR-21 FLuc 12%, Rango release inh -9%, Rango-impB inh -1.6% and GLA inh pH 4.5 -9.
CCOC(=O)CC1=CC(C)(CC(=O)OCC)C(C#N)(C#N)C(N)=C1C#N (configuration not stated) was read as miR-21 FLuc 3%, Rango release inh inconclusive, Rango-impB inh inconclusive and GLA inh pH 4.5 -2.
